ugtP null kill: growth inhibition of ugtP-null S. aureus, primary screen, RN4220 ugtP deletion, OD600 | 16 h; some inactives read as strong as hits | growth inhibition, % (test concentration not listed) | 0.54% of 330,000 active;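 active = z-score under -3 and OD600 up to 0.15 on both plates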;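 note: plate controls were untreated wells for no effect and antibiotic for full effect; wells of about 80 µL received 100 nL stock; the first replicate is given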
Sa RN4220 lethal: growth inhibition of S. aureus RN4220, primary screen, OD600; 16 h; inhibition, % (no concentration beside the values); 0.33% of 330,000 active; AID 1259311, 2017;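 active = z-score of -3 or lower and OD600 up to 0.18 on both plates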;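 note: plate controls were untreated cells for no effect and reference antibiotic for full effect; stock transfer was 100 nL into about 80 µL; one replicate is shown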
Mtb hypoxia rep: PubChem AID 1159583 | M. tuberculosis hypoxia-regulated fluorescent reporter, fluorescence | fluorescence inhibition, % (test concentration not listed) | 0.1% of 300,000 active;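 active = 35 to 45% if threefold the growth effect, above 45% if 1.5-fold the growth effect; inactive = the rest, general growth blockers included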;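 note: wells of about 50 µL received 100 nL stock; 0% = vehicle wells and 100% = reference inhibitor wells; whole bacteria with a GFP reporter of the hypoxia response; strong numbers were not always called active; many hits fall short of the cut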
BJeLR lethal: MLPCN primary cell-based screen for lethality selective to Ras in HRASV12 cells; BJeLR (HRASV12) viability, CellTiter-Glo ATP luminescence, 48 h; reference of the scale not given here; inhibition, % (concentration not given with the values); 0.17% of 300,000 active;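 active = replicate mean above 50%; inconclusive = above 50% but judged a plate artefact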;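 note: 50 nL library stock added to about 25 µL; numbers are from one replicate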
PrP 5UTR inh: inhibition of PrP 5' UTR reporter expression; cell-based PrP 5' UTR mRNA reporter, plate reader; inhibition, % (test concentration not listed); 0.35% of 340,000 active; AID 488862, 2010;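 active = every replicate at 50% or more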;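 note: 0 = median of the neutral control wells; tested in H4 reporter cells; numbers are from one replicate; inactives centre near -14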
Autofluor counter: compound fluorescence in toxin protease inhibitor counterscreen; compound autofluorescence counterscreen, microsphere flow cytometry; active compounds read high; fluorescence intensity (no concentration beside the values); 3.1% of 360,000 active;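 active = at least 3 SD above the mean of all compounds, about 16000 in these data; inconclusive = too few beads counted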;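 note: 100 nL of 1 mM stock went into each well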
Mtb hypoxia rep growth: recorded beside Mtb hypoxia rep, whose call it bears; growth inhibition, %; measured here: M. tuberculosis growth (absorbance);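 0% = vehicle and 100% = reference antibiotic; read after six days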
* hit, by the source's call; ? = inconclusive; / = no result given. Not a hit list; 4.1% or so of the library scored in one or more.

No.	molecule	ugtP null kill	Sa RN4220 lethal	Mtb hypoxia rep	Mtb hypoxia rep growth	BJeLR lethal	PrP 5UTR inh	Autofluor counter
1	O=C1CC(NS(=O)(=O)c2ccc([N+](=O)[O-])cc2)CN1c1ccc2c(c1)OCCO2 (stereo not given)	11	5.2	9	5	-9	-19	5200
2	Cn1c(N)c(C(=O)COC(=O)c2ccc(S(=O)(=O)N3CCCCC3)cc2)c(=O)n(C)c1=O	-5	-5.3	-2	3	-2	/	/
3	COC(=O)c1[nH]c2c(c1C(=O)OC)CCc1ccccc1-2	-1	4.3	6	7	3	-11	3758
4	COc1cc(C(=O)NCc2cc3cc(Cl)ccc3n2C)cc(OC)c1OC	1	3.8	2	12	-9	-26	3967
5	CCOC(=O)NC(=S)Nc1c(C)n(C)n(-c2ccccc2)c1=O	7	7.2	12	4	6	-16	4635
6	O=C(NCc1cc(Br)cc(Br)c1OC(=O)c1ccccc1[N+](=O)[O-])c1ccccc1	-16	19	9	-3	14	-20	2171
7	COC(=O)C1=C(C)NC(C)=C(C(=O)OC)C1c1cn(-c2ccccc2)nc1-c1ccco1	32	-10	4	3	-10	-8	16749*
8	Cc1cc(C)n2[nH]c(=O)c(N=Nc3ccccc3)c2n1	-4	-5.0	9	8	3	-4	3637
9	CCOC(=O)c1sc(=NC(=O)c2ccco2)n(C)c1C	4	1.1	12	9	/	-103	4349
10	COc1ccc(C(CNC(=O)c2cccc(S(=O)(=O)Nc3ccc(F)cc3)c2)N(C)C)cc1 (stereo not given)	5	4.9	0	5	/	-11	6722
11	COc1cc(C2C(C(=O)OCCC#N)=C(C)NC3=C2S(=O)(=O)c2ccccc23)cc(OC)c1OC (stereo not given)	-5	3.3	8	13	-7	-14	9629
12	CN(C)/C=N/C(=S)Nc1ccccc1F	/	/	/	/	3	-27	3463

In the list so far, three have an aryl methoxy group:
No.	molecule	ugtP null kill	Sa RN4220 lethal	Mtb hypoxia rep	Mtb hypoxia rep growth	BJeLR lethal	PrP 5UTR inh	Autofluor counter
4	COc1cc(C(=O)NCc2cc3cc(Cl)ccc3n2C)cc(OC)c1OC	1	3.8	2	12	-9	-26	3967
10	COc1ccc(C(CNC(=O)c2cccc(S(=O)(=O)Nc3ccc(F)cc3)c2)N(C)C)cc1 (stereo not given)	5	4.9	0	5	/	-11	6722
11	COc1cc(C2C(C(=O)OCCC#N)=C(C)NC3=C2S(=O)(=O)c2ccccc23)cc(OC)c1OC (stereo not given)	-5	3.3	8	13	-7	-14	9629

(continued)
No.	molecule	ugtP null kill	Sa RN4220 lethal	Mtb hypoxia rep	Mtb hypoxia rep growth	BJeLR lethal	PrP 5UTR inh	Autofluor counter
13	COC(=O)c1ccccc1NC(=O)CCCN1C(=O)C(c2ccccc2)Oc2cccnc21 (stereo not given)	0	3.3	8	1	0	-25	5361
14	COCCNC(=O)NC(=O)CN1CCN(C(c2ccccc2)c2ccccc2)CC1	-4	2.9	5	0	-6	-1	2045
15	C=CCn1c(=O)c2c(nc3n2CCCN3Cc2ccccc2)n(C)c1=O	4	2.0	2	-1	-2	-9	4508
16	O=C(O)CC1SC(=NN=Cc2ccccc2)N(c2ccc(O)cc2)C1=O (stereo not given)	3	0.8	10	2	/	/	/
17	Cc1[nH]c2ccccc2c1C(=O)C(=O)NCCCc1ccccc1	3	3.7	1	-3	5	-13	5871
18	CON(C)c1nc(OCCNC(=O)OCc2ccc(Cl)cc2C)nc(N(C)C)n1	7	7.4	12	12	-4	-11	3140
19	O=C(Nc1ccc(S(=O)(=O)N2C[C@@H]3C[C@@H](C2)c2cccc(=O)n2C3)cc1)c1ccc(F)cc1	4	3.6	5	2	/	-7	5620
20	c1ccc(-c2cc(-c3nnc4sc(-c5ccccn5)nn34)[nH]n2)cc1	-8	6.3	/	/	2	-14	2651
21	O=C(CNCCc1ccc(F)cc1)Nc1cc(F)ccc1F	-3	2.4	-13	-2	0	-17	3949
22	O=C(NCc1ccccc1)c1cc(-c2cccs2)on1	3	-2.1	4	6	-6	-20	18644*
23	COc1ccccc1N1CCN(C(=O)CSc2nc(C)c(Cc3ccccc3)c(=O)[nH]2)CC1	-6	4.5	3	6	-2	-39	10391
24	Cc1nc2ccccn2c1-c1nnco1	4	0.2	/	/	7	-25	5070

At a glance, 5 of the compounds above.
No.	molecule	ugtP null kill	Sa RN4220 lethal	Mtb hypoxia rep	Mtb hypoxia rep growth	BJeLR lethal	PrP 5UTR inh	Autofluor counter
13	COC(=O)c1ccccc1NC(=O)CCCN1C(=O)C(c2ccccc2)Oc2cccnc21 (stereo not given)	0	3.3	8	1	0	-25	5361
14	COCCNC(=O)NC(=O)CN1CCN(C(c2ccccc2)c2ccccc2)CC1	-4	2.9	5	0	-6	-1	2045
15	C=CCn1c(=O)c2c(nc3n2CCCN3Cc2ccccc2)n(C)c1=O	4	2.0	2	-1	-2	-9	4508
16	O=C(O)CC1SC(=NN=Cc2ccccc2)N(c2ccc(O)cc2)C1=O (stereo not given)	3	0.8	10	2	/	/	/
17	Cc1[nH]c2ccccc2c1C(=O)C(=O)NCCCc1ccccc1	3	3.7	1	-3	5	-13	5871

Next structures
No.	molecule	ugtP null kill	Sa RN4220 lethal	Mtb hypoxia rep	Mtb hypoxia rep growth	BJeLR lethal	PrP 5UTR inh	Autofluor counter
25	Oc1ccc(Cc2ccccc2Cl)c(O)c1	-30	-8.9	12	11	/	-13	3851
26	Cc1cc(/C=C(/C#N)C(=O)O)c(C)n1CCC(C)C	17	5.1	10	4	2	-29	2284
27	Cc1ccccc1NC(=O)c1cccc(C(F)(F)F)c1	13	5.7	12	6	-13	-5	2374
28	COc1ccc(NC(=O)N2CCCC2C(=O)Nc2ccc(C)cc2C)cc1 (stereo not given)	-1	0.3	0	3	-3	-37	5145
29	CC1(C)C(=O)C2(C(=O)NCc3ccccc3)CCC1C2 (stereo not given)	0	1.2	/	/	-8	1	3658
30	N=c1nc(N)nc2n1NC(c1ccc(F)cc1)=CS2	-3	6.4	-2	3	-4	-30	7745
31	O=C(CSc1nc2ncc(Br)cc2[nH]1)Nc1ccccc1-c1ccccc1	-7	5.5	0	-9	1	-23	4089
32	O=C(CCS(=O)(=O)Cc1ccc(Cl)cc1)NCCCN1CCN(c2ccccc2F)CC1	3	7.0	17	8	-4	-13	22031*
33	O=C(COc1ccccc1Cl)N1CCc2ccccc21	6	4.7	14	0	-10	-99	5980
34	COC(=O)c1ccc(NS(=O)(=O)c2ccc(S(=O)(=O)N3CCOCC3)cc2)cc1	3	5.9	2	8	/	-2	8776
35	Cc1cc(NC(=O)CN2C(=O)S/C(=C\c3ccccc3)C2=O)no1	/	/	/	/	3	-7	2094
36	C=CCOC(=O)C1=C(C)NC(SCC(N)=O)=C(C#N)C1c1cccs1 (stereo not given)	0	2.1	-2	-6	-10	-1	2543

Next part.
No.	molecule	ugtP null kill	Sa RN4220 lethal	Mtb hypoxia rep	Mtb hypoxia rep growth	BJeLR lethal	PrP 5UTR inh	Autofluor counter
37	CCOC(=O)c1cc2n(n1)C(C(F)(F)C(F)(F)F)CC(C)N2 (stereo not given)	-5	-4.0	/	/	9	2	2235
38	Cc1ccc(NC(=O)CSCC(=O)NCCc2ccccc2)cc1	-3	0.7	4	10	-5	-23	5837
39	O=C1ON=C(c2cccc([N+](=O)[O-])c2)/C1=C/c1ccc(O)cc1	1	2.2	1	6	1	3	4636
40	CCOc1ccccc1N1CCN(C(=O)c2cc3c(s2)CCC3)CC1	-4	6.8	7	1	-4	-9	2479
41	O=C(OCCN1C(=O)c2ccccc2C1=O)c1cc(=O)[nH]c2ccccc12	8	3.2	/	/	-4	1	4751
42	CCCCn1c(N)c(N(CC(C)C)C(=O)CSCC(=O)Nc2ccc(OC)cc2)c(=O)[nH]c1=O	3	1.4	8	4	0	-20	5854
43	O=C(Nc1nc(-c2ccccc2)cs1)c1ccc2c(c1)S(=O)(=O)c1ccccc1C2=O	-9	2.8	-13	-7	-6	-3	2548
44	COc1ccc(NC(=O)CNC(=O)CC23CC4CC(CC(C4)C2)C3)c(OC)c1	-1	0.7	2	1	/	-12	6947
45	Cc1ccc(C)c(CN2CCC(CNC(=O)CCc3nnc4ccc(N5CCCCC5)nn34)CC2)c1	0	0.8	13	4	1	-6	7049
46	Cc1ccc(NC(=O)N2CCCC2C(=O)NCc2ccc(Cl)cc2)cc1 (stereo not given)	1	2.1	-14	5	2	-8	4196
47	Cc1ccc(C(=O)Nc2ccccc2Oc2ccccc2)o1	-1	4.1	-7	0	-10	-11	5724
48	CCc1ccccc1NS(=O)(=O)c1ccc2[nH]cc(C(=O)NC3CCCC3)c(=O)c2c1	-6	28	-1	4	7	-15	2443

Next results follow:
No.	molecule	ugtP null kill	Sa RN4220 lethal	Mtb hypoxia rep	Mtb hypoxia rep growth	BJeLR lethal	PrP 5UTR inh	Autofluor counter
49	Cc1cccc(NN=Cc2ccc(O)c(O)c2O)c1	2	2.4	17	2	/	/	/
50	Cc1oc(-c2ccc(Cl)cc2)nc1CS(=O)CC(=O)NCCCN1CCOCC1 (stereo not given)	0	0.6	3	7	-4	-2	6083
51	COc1cc(NS(=O)(=O)c2ccc(Br)s2)cc(OC)c1	-12	6.2	6	-3	0	-5	9936
52	COC(=O)CCC(=O)N1CCCC(C(=O)c2ccc(Cl)cc2C)C1 (stereo not given)	10	-3.5	4	-2	-3	-18	3959
53	O=C(CNc1ccccc1)Nc1cccc2ccccc12	1	4.7	12	9	0	9	/
54	CCC(c1nnnn1CCOC)N(Cc1cc2cc(C)c(C)cc2[nH]c1=O)CC1CCCO1 (stereo not given)	0	3.4	-7	4	0	-10	15328
55	COc1nc(C)nc2c1sc1nc3c(cc12)COC(C)(C)C3	-2	0.8	/	/	7	-102	2702
56	O=C(NCCc1ccc(F)cc1)c1ccc(S(=O)(=O)N2CCCC2)cc1	2	0.9	-10	2	/	-19	9445
57	Cc1cc(C)n(-c2nc3ccccc3c(=O)n2OCC(N)=O)n1	-6	-1.1	-8	-6	-1	-3	21858*
58	Cc1ccc(-n2c(SCC(=O)Nc3ncc(Cl)cc3Cl)nc3ccccc32)cc1	-25	-3.5	0	5	29	8	1983
59	Cc1cc(C)c(C#N)c(SC(F)F)n1	6	4.9	6	6	0	-1	?
60	O=C(NCc1cccnc1)c1cn(-c2ccccc2)nc1-c1ccccc1	1	2.0	12	12	-3	-54	3296

Remaining list, next part.
No.	molecule	ugtP null kill	Sa RN4220 lethal	Mtb hypoxia rep	Mtb hypoxia rep growth	BJeLR lethal	PrP 5UTR inh	Autofluor counter
61	Cc1cc(C)cc(OC(C)C(=O)NCCCn2ccnc2)c1 (stereo not given)	-1	2.2	-7	-1	-9	-9	3934
62	COc1cccc(C(=O)CC(C#N)c2ccc(F)cc2)c1 (stereo not given)	-1	4.3	5	4	26	-4	3225
63	CCOc1ccc(N2CC(C(=O)Nc3ccncc3)CC2=O)cc1 (stereo not given)	1	3.1	-1	-3	-5	-8	6757
64	COC(=O)c1ccccc1NC(=O)NC1CCCCC1	0	3.2	3	-8	-6	-13	6032
65	CCCc1[nH]nc2c1C1(CCN(C(=O)OCc3ccccc3)CC1)C(C#N)=C(N)O2	-3	7.6	-10	0	4	-9	9512
66	CN1CCc2c(OCC(=O)N3CCC(Cc4ccccc4)CC3)cccc2C1=O	2	7.1	-1	5	1	-11	4840
67	Cc1ccc(N(C)S(=O)(=O)c2cccc(C(=O)NC3=NCCS3)c2)cc1	18	11	4	-5	-8	-11	3299
68	CC(=NNC(=O)c1cccc(S(=O)(=O)N2CCCC2)c1)c1ccc(OCC(=O)N(C)C)cc1	1	2.1	1	-3	/	/	/
69	COC(=O)C(C(=O)Nc1nc2ccccc2s1)C1CCCC1 (stereo not given)	-11	6.0	12	2	4	-18	3035
70	Cc1sc2nc(CSC(C)C(=O)Nc3ccc(Cl)cn3)[nH]c(=O)c2c1C (stereo not given)	5	9.5	-4	-3	/	-24	6833
71	Cc1ccn(S(=O)(=O)c2ccc(N3CCCC3=O)cc2)n1	3	0.1	-10	1	1	-9	6012
72	COc1ccc(-c2nc3ccccc3n2CCC(C)C)cc1OC	6	0.4	/	/	-1	-17	2417
73	CCCCCc1c(C)nc(N2CCOCC2)[nH]c1=O	-2	3.4	9	5	2	-6	9998
74	Cc1cccc2cc(COC(=O)c3ccccc3)c(=O)[nH]c12	-2	15	-7	5	1	-15	2818
75	O=S(=O)(c1ccc(Cl)cc1)c1cnc(-c2cccnc2)nc1-c1ccccc1	-7	14	7	2	-11	-15	4369

Screening data (PubChem BioAssay)
